High-throughput results deposited in PubChem BioAssay by Center for Chemical Genomics, University of Michigan.
CDC25B CDK2 inh: human CDC25B-CDK2/CyclinA binding inhibition; P30305+P24941; HTRF CDC25B-CDK2/CyclinA binding, anti-His/anti-Flag; active compounds read high; z-score (concentration not given with the values); actives 0.72% (n = 94,000); AID 1259370;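 also: score is relative to mean and SD of negative controls; strong numbers were not always called active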
TAR Tat displ: HIV-1 TAR-Tat binding disruption | HIV-1 TAR RNA, Tat peptide displacement FRET; active compounds read high | z-score (concentration not given with the values) | actives 0.6% (n = 100,000) | AID 1259389;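 also: score is relative to mean and SD of negative controls; some compounds called inactive have numbers as strong as hits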
Starred values were filed as active, the others as inactive; · = not tested or not shown.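 The calls were made as follows: active = z-score from 3 up in half or more of its runs; inactive = the rest.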

SMILES | CDC25B CDK2 inh | TAR Tat displ
CCn1c2ccccc2c2nnc(NCc3ccccn3)nc21 | -0.89 | 3
O=c1c2c(-c3ccccc3)csc2ncn1Cc1cccnc1 | -0.81 | -0.86
CC(C)c1ccc(NC(=O)CSc2nnc(OC(=O)N(C)C)n2-c2ccccc2)cc1 | -1 | ·
COc1ccccc1Cn1cc(C(=O)c2ccc(Cl)cc2)c(=O)c2cc3c(cc21)OCCO3 | 0.19 | 1.5
CCc1ccc(NS(=O)(=O)c2ccc3c(c2)C(C)(C)C(=O)N3C)cc1 | · | 1.1
O=C(COc1ccccc1)N1N=C(C2CCCCC2)CC1(O)C(F)(F)F (centres undefined) | -1.8 | ·
Cc1cn(CCC(=O)NCc2c(F)cccc2Cl)c2ccccc12 | -1.6 | ·
CCn1c2ccccc2c2nc3ccccc3nc21 | -5 | -2.2
CC1CC(=O)Nc2cc(S(=O)(=O)N(Cc3cccs3)C3CCCCC3)ccc2S1 (centres undefined) | · | 0.66
CCOC(=O)c1sc2ccccc2c1S(=O)(=O)Nc1cccc(F)c1 | · | -1.2
CC1(C)Cc2c(sc3nc(SCC(=O)NC(c4ccccc4)c4ccccc4)nc(N)c23)CO1 | -2.3 | 2.1
CCC(C)NS(=O)(=O)c1cc(Br)cc2c1N(C(=O)C1CC1)CC2 (centres undefined) | -0.84 | ·
O=C(NCCC1=CCCCC1)c1cnc2sc(N3CCCCC3)nn2c1=O | · | 0.53
O=C(Nc1ccc(I)cc1)c1cccc(S(=O)(=O)N2CCCCC2)c1 | -3.4 | ·
CC(=O)N(Cc1ccco1)C1(C(=O)NC2CCCCC2)CCCCC1 | 0.32 | ·
COc1cc(OC)cc(-c2nc3n(n2)C(c2cccc(OC)c2OC)C2=C(CCCC2=O)N3)c1 (centres undefined) | -1.2 | -0.68
Cc1cc(C)n(C(=O)c2ccncc2)n1 | -0.89 | 1.1
O=C1CCc2cc(NC(=O)C3CCCCC3)ccc2N1 | · | -0.15
CC(C)OC(=O)c1cc2n(n1)C(C(F)(F)F)CC(c1cccs1)N2 (centres undefined) | -1.9 | ·
COCC(=O)Nc1nc2nc3c(c(=O)n2[nH]1)CCC3 | 1.1 | 2.4
Cn1nnnc1SCCNCc1cc(Cl)ccc1OCc1ccccc1F | -0.56 | 1.3
CCCSc1nnc(NC(=O)c2cc(=O)c3ccc(C)cc3o2)s1 | -0.94 | 1.2
COc1ccc(CCNS(=O)(=O)c2ccc3oc(=O)c4ncn(C)c4c3c2)cc1OC | -0.22 | 0.87
CCN(c1ccc(OC)cc1)S(=O)(=O)c1ccc(-c2cc(C)[nH]n2)s1 | · | 0.86
COc1ncnc2c1[nH]c1ccc(C)cc12 | -0.75 | 1.9
O=C(OCCNc1ccc([N+](=O)[O-])cn1)c1ccc([N+](=O)[O-])o1 | -0.01 | ·
COc1ccc(-n2nnnc2SCC(=O)Nc2nccs2)cc1 | -0.76 | 0.35
Cn1c(C(=O)N2CCCC(C(=O)NCc3ccc4c(c3)OCO4)C2)cc2sccc21 (centres undefined) | -0.6 | 0.76
CSc1cccc(NC2c3ccccc3C(=O)N2c2cc(C)ccn2)c1 (centres undefined) | -0.43 | 0.78
Brc1ccccc1-c1nnc2sc(COc3ccccc3)nn12 | -2.1 | 2.4
CCC(C)NC(=O)CCc1c(C)nc2c(c(C)nn2C)c1C (centres undefined) | -0.59 | 0.19
CCc1nc(-c2csc(S(=O)(=O)Nc3cccc(Br)c3)c2)no1 | · | -0.42
O=C(c1ccc2cn[nH]c2c1)N1CCN(Cc2ccc3c(c2)OCO3)CC1 | · | -0.39
COc1ccc(Cl)cc1-n1nnc(C(=O)O)c1C(=O)O | -2.1 | 0.77
COc1ccc(C2CC(=O)C3=C(C2)NC(=O)CC3c2ccccc2OC)cc1OC (centres undefined) | -1.9 | -1.3
COc1ccccc1-c1nc2c(c(=O)[nH]1)Cc1cc(Br)ccc1O2 | -0.17 | 1.4
CC1CCCCN1Cc1ccc(-c2nn[nH]n2)cc1 (centres undefined) | 0.23 | 1.2
Cn1c(=O)n(C)c2cc(N3CCOCC3)c(NC(=O)COc3ccc(Cl)cc3)cc21 | -1.4 | 1.7
COc1cc2c(cc1OC)CN([C@H]1CS(=O)(=O)C[C@@H]1S(=O)(=O)c1cccs1)CC2 | -1.9 | -0.93
Cc1nc2ccc(Br)cc2c(-c2ccccc2)c1C(=O)O | -7 | 2.1
COc1ccc(C2c3c(oc4ccccc4c3=O)C(=O)N2c2ccccn2)cc1OC (centres undefined) | -0.47 | 0.36
C#Cc1cccc(N=Cc2cc([N+](=O)[O-])cc(Br)c2O)c1 | -1.7 | ·
Cc1noc(C)c1C(=O)N1CCN(Cc2ccc3c(c2)OCO3)CC1 | -0.47 | ·
C=CCNc1ncnc2c1cnn2-c1cc(Cl)ccc1C | · | 0.75
CN1C(=O)C2CCCCN2c2ccc(C(=O)N3CCN(C(=O)c4ccco4)CC3)cc21 (centres undefined) | · | 0.82
Cc1nnc(N2C(=O)c3oc4ccccc4c(=O)c3C2c2ccc(Br)cc2)s1 (centres undefined) | -0.07 | 2.4
COc1cccc(-c2nc3c(c(SC)n2)Cc2c(CO)cnc(C)c2O3)c1 | · | 0.46
Nc1c(-c2nc(-c3cccs3)no2)nnn1-c1ccc(Br)cc1 | · | -0.45
CC(=O)N1c2ccccc2CC1C(=O)Nc1ccccc1Br (centres undefined) | · | 1.6
CN(NC(=O)c1cccs1)c1ccc([N+](=O)[O-])cn1 | -1.2 | ·
CCOC(=O)Cc1cc(=O)[nH]c(Nc2nc3ccccc3s2)n1 | 0.86 | ·
O=S(=O)(c1ccc2[nH]c3c(c2c1)CCCCC3)N1CCOCC1 | · | 2.6
CCN(CC)CCNc1nc(C)nc2c1sc1nc3c(cc12)COC(C)(C)C3 | 0.27 | 2.5
COc1ccc(-c2noc(NCCc3nc4ccccc4n3C)n2)cc1 | · | -1.5
CCCCn1cnc2scc(-c3ccc(C)cc3)c2c1=O | 0.59 | 1.5
Cc1ccc(OCCn2cnc3cc(C)c(C)cc32)cc1 | -2.3 | -1.3
CCSc1nc(=O)c2c(n1C)NC(=O)CC2c1ccc(O)cc1OC (centres undefined) | -1.3 | 1.2
O=C(CCCN1C(=O)CSc2ncccc21)NCc1ccc2c(c1)OCO2 | -1.4 | 0.61
OC[C@H](O)[C@H](O)[C@@H](O)[C@@H](O)[C@@H]1SC(c2ccccc2)=NN1c1ccccc1 | -1.1 | ·
CC(C)c1cc(C(=O)Nc2ccc(N(C)C)cc2)nn1C1CCS(=O)(=O)C1 (centres undefined) | -0.65 | -1.2

Quoted from above (2 entries):
SMILES | CDC25B CDK2 inh | TAR Tat displ
Cc1nnc(N2C(=O)c3oc4ccccc4c(=O)c3C2c2ccc(Br)cc2)s1 (centres undefined) | -0.07 | 2.4
COc1cccc(-c2nc3c(c(SC)n2)Cc2c(CO)cnc(C)c2O3)c1 | · | 0.46

Later entries.
SMILES | CDC25B CDK2 inh | TAR Tat displ
Cn1c(=O)c2sccc2n2c(CCCC(=O)N3CCC(N4CCCCC4)CC3)nnc12 | · | -1.1
O=C(NC1(N2CCCCC2)C(=O)c2ccccc2C1=O)c1ccc(C(F)(F)F)cc1 | -0.6 | ·
O=C(Cn1cnc2c(nnn2-c2cccc(Cl)c2)c1=O)N1CCCC1 | -0.01 | -0.24
O=C(Nc1cnn(Cc2ccc(F)cc2)c1)c1cc2n(n1)C(C(F)(F)F)CC(c1ccco1)N2 (centres undefined) | -1.4 | 1.1
COc1ccc(-c2cc(-c3ccc(OC)cc3)c3c(N)c(C(=O)c4ccc(Cl)c(Cl)c4)sc3n2)cc1 | -3.5 | ·
CC(=O)c1c(N2CCOCC2)nc(=S)n(-c2ccccc2)c1C | -0.95 | ·
COc1ccc(N2C(=O)C3CC=CCC3C2=O)cc1OC (centres undefined) | -2.2 | ·
Cc1ccc2c(c1)N(C(=O)NC1CCCC1)CC(C)O2 (centres undefined) | · | 1.7
Cc1ccc(-c2nnc3c4ccccc4c(C)nn23)cc1S(=O)(=O)NC(C)(C)C | 0.16 | 0.46
COc1ccccc1Cc1nc2ccccc2[nH]c1=O | -1.7 | -1.1
Cn1c(=O)c2c(nc(NCCOc3ccc(Cl)cc3)n2C)n(C)c1=O | 1.3 | -0.24
Cc1ccc(C)c(S(=O)(=O)N2CCN(c3cc(N4CCCC4)nc(C)n3)CC2)c1 | -1 | 0.38
CS(=O)(=O)c1ncc(Cl)c(C(=O)N(Cc2cccs2)C2CCS(=O)(=O)C2)n1 (centres undefined) | -0.85 | 3.4
CC(Cc1ccccc1)NC(=O)C1CCCNC1=O (centres undefined) | -0.13 | ·
CCCCC(=O)N1CCN(c2nc3ccccc3cc2-c2noc(C)n2)CC1 | -0.71 | -0.62

Of the compounds above, four contain a CF3 group:
SMILES | CDC25B CDK2 inh | TAR Tat displ
O=C(COc1ccccc1)N1N=C(C2CCCCC2)CC1(O)C(F)(F)F (centres undefined) | -1.8 | ·
CC(C)OC(=O)c1cc2n(n1)C(C(F)(F)F)CC(c1cccs1)N2 (centres undefined) | -1.9 | ·
O=C(NC1(N2CCCCC2)C(=O)c2ccccc2C1=O)c1ccc(C(F)(F)F)cc1 | -0.6 | ·
O=C(Nc1cnn(Cc2ccc(F)cc2)c1)c1cc2n(n1)C(C(F)(F)F)CC(c1ccco1)N2 (centres undefined) | -1.4 | 1.1

Single records, as listed above. Screens in order: CDC25B CDK2 inh, TAR Tat displ
`Nc1c(-c2nc(-c3cccs3)no2)nnn1-c1ccc(Br)cc1` is listed with ·, -0.45
`CCc1ccc(NS(=O)(=O)c2ccc3c(c2)C(C)(C)C(=O)N3C)cc1` is listed with ·, 1.1
`COc1ccc(-c2noc(NCCc3nc4ccccc4n3C)n2)cc1` is listed with ·, -1.5

Additional results
SMILES | CDC25B CDK2 inh | TAR Tat displ
CCOCCOC(=O)COc1ccc2c(=O)c(Oc3cc(C)cc(C)c3)c(C(F)(F)F)oc2c1 | -1.1 | ·
Cn1c(=O)[nH]c(=O)c2c1ncn2CC(=O)NCc1ccco1 | -1.5 | 0.19
Cc1cc(S(=O)(=O)Nc2c(C)nn(C)c2C)c(Cl)cc1Cl | -1.5 | ·
COc1cc(C(=O)NN)c(-n2c(C)ccc2C)cc1OC | -2 | ·
CC1(C)Cc2c(C#N)c(SCc3ccccc3Cl)nc(N3CCOCC3)c2CO1 | -0.3 | 0.07
COCCCNC(=O)CCc1c(C)nc2c(c(C)nn2C)c1C | -2.4 | 2.4
C=CCOc1cccc(C2c3c(oc4ccc(C)cc4c3=O)C(=O)N2CCOC)c1 (centres undefined) | -1.8 | 1.5
CCn1c(C)ccc(-c2noc(CCC(=O)Nc3nnc(COC)s3)n2)c1=O | -3 | -0.05
CCOc1ccc2[nH]ccc(=O)c2c1 | -0.77 | 0.51
CN1C(=O)C(O)(CC(=O)c2cccc3ccccc23)c2ccccc21 (centres undefined) | -0.07 | 0.38
COC(=O)/C=C1\SC(c2ccccc2)=NC1=O | -1.7 | ·
Oc1ccc(Br)cc1CN1CCC(N2CCCCCC2)CC1 | -1.6 | ·
COCCNc1nc(Nc2ccc(F)cc2)c2cnn(C)c2n1 | · | -0.18
O=C(Nc1cccs1)Nc1nnc(C2CC2)s1 | -0.98 | ·
CCCCN(C)S(=O)(=O)c1ccc2c(c1)C(C)(C)C(=O)N2C | · | 1.7
CSc1cccc(NC(=O)CN(C)S(=O)(=O)c2cnc[nH]2)c1 | 0.88 | 0.1
N#C/C(=C\c1cccnc1)C(=O)OCc1ccccc1 | 1.1 | ·
Cc1ccc(SCCNC(=O)c2cccnc2Oc2ccccc2)cc1 | -1.3 | ·
COC(=O)c1ccc(COc2ccc(C3OC(C)CC(C)(C)O3)cc2OC)cc1 (centres undefined) | 0.18 | ·
CCOC(=O)c1c(NC(=O)CN2CCCCC2)sc2c1CCCC2O (centres undefined) | -1.2 | 1.5
COc1ccccc1C1NC(=O)c2n[nH]c(-c3cccs3)c21 (centres undefined) | 0.51 | 0.65
Cn1cc(S(=O)(=O)N2CCc3ccccc32)cc1C(=O)NC1CCCC1 | · | 1.4
CCCS(=O)(=O)/C(C#N)=C/c1sccc1Oc1ccccc1 | -2 | ·
CCOC(=O)C1=C(C)NC(C)=C(C(=O)OCC)C1c1ccco1 | -0.6 | ·
Cc1cc(-c2ccc(C(C)C)c(S(=O)(=O)Nc3cc(C)on3)c2)on1 | · | 0.65
Cc1c(C)c(C)c(C(=O)CCCC(=O)O)c(C)c1C | -2 | ·
Cc1c(C(=O)NNC(=O)c2ccc(Cl)cc2)ncn1Cc1ccc(Cl)cc1 | -1.3 | ·
O=C(CSc1nc(-c2ccccc2)nc2cc(=O)[nH]n12)NCc1ccc(Cl)cc1 | · | -1.8
CCSC1=N/C(=C\c2ccc(OC(C)=O)cc2)C(=O)S1 | 1 | -3.6
CC(C)Cn1c(CN2CCOCC2)nc2c1c(=O)n(C)c(=O)n2C | -1 | ·

Continued, starting with the last 6 of the part before.
SMILES | CDC25B CDK2 inh | TAR Tat displ
Cc1cc(-c2ccc(C(C)C)c(S(=O)(=O)Nc3cc(C)on3)c2)on1 | · | 0.65
Cc1c(C)c(C)c(C(=O)CCCC(=O)O)c(C)c1C | -2 | ·
Cc1c(C(=O)NNC(=O)c2ccc(Cl)cc2)ncn1Cc1ccc(Cl)cc1 | -1.3 | ·
O=C(CSc1nc(-c2ccccc2)nc2cc(=O)[nH]n12)NCc1ccc(Cl)cc1 | · | -1.8
CCSC1=N/C(=C\c2ccc(OC(C)=O)cc2)C(=O)S1 | 1 | -3.6
CC(C)Cn1c(CN2CCOCC2)nc2c1c(=O)n(C)c(=O)n2C | -1 | ·
Cc1ccc(Nc2nc(-c3ccc(O)c(O)c3)cs2)nc1 | -1.1 | 16*
Cc1ccc(C)c(Nc2c(-c3ccccc3)c(=O)c2=O)c1 | · | 2.4
CCC(=O)Nc1nc2nc(C)cc(C)n2n1 | -1.4 | -0.51
CC1CCCCN1S(=O)(=O)c1ccc2c(c1)C(C)(C)C(=O)N2C (centres undefined) | · | 1.5
Cc1cc(C)cc(NC(=O)C(C)CS(=O)(=O)c2ccc3c(c2)NC(=O)C(C)S3)c1 (centres undefined) | · | -0.17
COc1ccc(-n2ccnc(OC)c2=O)cc1 | -1.4 | 2.1
